AID504770 – growth inhibitors of E. coli YBA685 in a screen for V. cholerae RctB (chromosome II replication) inhibitors. E. coli YBA685 rctB-dependent plasmid, OD600 growth, 3 h; stronger effect = lower value. z-score (no concentration beside the values). hit rate 0.27% among 130,000;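 active = z-score under -2 on both plates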;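 note: wells of about 30 µL received 100 nL stock; score is relative to mean and SD of the test wells; the first replicate is given; strong numbers were not always called active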
CapD inh – CapD enzyme inhibition; purified CapD enzyme, fluorescence intensity read-out; stronger effect = lower value; some hits fall short of the stated cut; z-score (concentration not given with the values); hit rate 0.23% among 140,000; AID 492967;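 active = z-score under -4 in either of two replicates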;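 note: stock transfer was 100 nL into about 40 µL; score is relative to mean and spread of the plate; one replicate is shown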
Active calls of the source: *; . = not tested or not shown.

Value order: AID504770	CapD inh
C=CCOC(=O)c1cc(-c2ccc(/C=C3/NC(=S)NC3=O)o2)ccc1Cl
    0.55	0.96
CC(SCC(=O)Nc1ccc(F)cc1)C(=O)O (stereo not drawn)
    -1.5	.
Clc1nc2ccccc2nc1-c1ccccc1
    -0.75	-0.35
Cn1c(=O)c2c(nc(NCc3ccccc3)n2CC(O)COc2ccc(Cl)cc2)n(C)c1=O (stereo not drawn)
    .	0.05
Cc1ccc(C(=O)CCCn2nnc(-c3ccncc3)n2)cc1C
    -0.45	.
COC(=O)c1ccccc1SC(CC(=O)c1ccccc1)c1ccc(F)cc1 (stereo not drawn)
    .	-0.18
Cc1ccc(CNc2ccc(N3CCOCC3)cc2)cc1
    0.1	.
O=C(O)CSc1ncnc2c1nnn2Cc1ccccc1F
    -0.1	.
Cc1cc(C)nc(OC(Cc2ccnc3ccccc23)c2ccc(C(C)(C)C)cc2)n1 (stereo not drawn)
    .	-0.4
O=c1cc(O)nc(SCc2c(Cl)cccc2Cl)[nH]1
    .	0.13
C1CCC(CN2CCOCC2)CC1
    -1.1	-0.075
O=C(O)CSc1nnnn1-c1ccccc1
    0.1	-0.48
Cc1nc2nc[nH]n2c(=O)c1NC(=O)NC1CCCC1
    -0.55	0.02
COc1ccc(-c2csc(-c3ccc(OC)cc3)n2)cc1
    0.9	10
CCOC(=O)c1c(C)noc1-c1csc(Nc2ccc(Cl)cc2)n1
    0.1	6.8
O=C1CCCC(O)=C1N=Nc1ccc2ncsc2c1
    -2.1	.
CCOC(=O)c1ccc(-c2nnc(COc3cccc(C)c3)o2)cc1
    -0.75	0.23
CC1(C)COC(CCOC(=O)NNC(=O)CNS(=O)(=O)c2cccc3nsnc23)OC1
    .	-0.31
O=C(O)Cc1ccc(O)cc1
    -0.45	-0.17
CC(C(O)c1ccc(O)cc1)N1CCC(Cc2ccccc2)CC1 (stereo not drawn)
    .	-0.49
CN(C)S(=O)(=O)c1ccc(C(=O)Nc2ccnn2C2CCCCC2)cc1
    -0.5	.
O=S(=O)(c1ccc(F)cc1)n1ccc(-c2cnc(-c3ccccc3)s2)n1
    .	4.5
C[C@@H]1CC[C@H]2C(C)(C)C3CC12CCC3(C)O (stereo partly drawn)
    -0.65	0.49
Cc1ccc(Sc2ncccc2C2=N/C(=C\N(C)C)C(=O)O2)cc1
    -0.85	0.78
Fc1ccc(C(c2nnc(-c3ccccc3)o2)N2CCc3ccccc3C2)cc1 (stereo not drawn)
    1.1	-0.71
CC(=O)N1CCN(CC(O)COc2ccc(Br)cc2)CC1 (stereo not drawn)
    0.35	.
COC(=O)c1csc2c(C(F)(F)F)cc(N3CCN(S(=O)(=O)c4ccc(F)cc4F)CC3)nc12
    .	16
COC(=O)c1ccc(COc2ccc(/C=N\O)cc2)o1
    0.85	-0.11
O=C(/C=C/c1ccc(Br)cc1)Nc1ccccn1
    2.9	-0.12
COC(=O)CCCC(=O)NNC(=O)c1cnn(-c2ccc([N+](=O)[O-])cc2)c1C(F)(F)F
    .	-0.055
Cc1sc(NC(=O)C(C)Oc2ccc(Cl)cc2Cl)c(C(N)=O)c1C (stereo not drawn)
    1.5	1.6
O/N=C/c1c(-c2ccccc2Cl)[nH]c2ccccc12
    0.5	13
O=C(Nc1ccc(-c2ccc(N3CCCCC3)nn2)cc1)C(F)(F)F
    1.4	.
CNc1ccc(Br)cc1-c1nc2cc3ccccc3cc2n(C)c1=O
    .	-0.3
CCOC(=O)c1ccc(N2Cc3ccccc3C2)cc1
    1.9	-0.37
C[C@H]1O[C@H](OC2[C@@H](O)[C@@H](O)C(O)[C@H](O)[C@H]2O)[C@@H](N)C[C@@H]1N=C(N)C(=O)O (stereo partly drawn)
    0	.
Cc1nc(Sc2nc3ccccc3o2)c2c3c(sc2n1)CCCC3
    -0.9	.
O=C(NC(Cc1ccccc1)C(=O)O)c1cccs1 (stereo not drawn)
    0.1	0.12
CN(C)c1ccc(/C=C2\CCC=C2N2CCOCC2)cc1
    -0.3	.
CC(c1ccccc1)n1c(SCC(=O)c2cc(-c3ccccc3)no2)n[nH]c1=O (stereo not drawn)
    -0.3	0.78
Cc1cn(CCC(=O)Nc2ccccc2N2CCOCC2)c2ccccc12
    1.4	-0.66
Cc1cc(NC(=O)CC#N)n(-c2ccccc2)n1
    -0.55	.
CCOC(=O)C1=NN(C(=O)c2ccc([N+](=O)[O-])cc2)C(O)(C(C)(C)C)C1 (stereo not drawn)
    .	0.075
Cc1nn(CCCC(=O)NC2CCCCC2C)c(=O)c2cc3sccc3n12 (stereo not drawn)
    -0.3	-0.17
O=C(CN1CCCc2ccccc21)N1CCc2ccccc21
    -0.45	0.13
COc1cccc(NC(=S)NC(C)(C)C)c1
    -0.05	0.12
O=C1c2ccccc2-c2nc3ccccc3cc21
    .	5.2
CC1=C(C#N)C2(O)C(=O)c3ccccc3C2(O)N1 (stereo not drawn)
    -0.4	0.025
O=C(NCC1CCCO1)c1ccc2c(c1)sc1nc(-c3ccccc3)cn12 (stereo not drawn)
    -0.35	-0.27
COc1ccc(CCNC(=O)c2sc3ncn(CC(=O)N4CC(C)CC(C)C4)c(=O)c3c2C)cc1OC (stereo not drawn)
    .	-0.13
O=C(COc1ccccc1C(=O)NCc1ccccc1)Nc1cccc2nsnc12
    -0.15	.
CCCN1CCN(CCCNC(=O)CN2C(=O)C(c3ccccc3)Oc3cccnc32)CC1 (stereo not drawn)
    -1.1	-0.62
O=C(O)CCCc1nc(-c2ccccn2)no1
    -0.85	-0.045
CCOC(=O)c1c(C=O)oc2c(C)cc(OC(=O)c3cccs3)c(Br)c12
    .	-1.6
Cc1ccc(-c2oc(N)c(C#N)c2-c2ccc(C)cc2)cc1
    -0.3	22
COc1ccc(Cl)cc1S(=O)(=O)NCCSCc1c(Cl)cccc1Cl
    .	-0.01
O=C(Nc1ccccc1C(=O)N1CCN(c2ccccc2)CC1)c1cccc(S(=O)(=O)N2CCCCCC2)c1
    .	-0.97
COCC(Cc1ccccc1)NS(=O)(=O)c1ccc(C(C)=O)cc1 (stereo not drawn)
    .	0.03
O=C(Nc1ccccc1)Nc1ccccn1
    -0.4	0.21
c1cnc(-c2nnc3sc(C45CC6CC(CC(C6)C4)C5)nn23)cn1
    -0.1	.

Next part.
Value order: AID504770	CapD inh
O=C(CN1C(=O)/C(=C\C=C\c2ccccc2)SC1=S)Nc1ccc(F)cc1
    0.35	-0.055
O=C(NCC1CCCO1)c1ccc2c(=O)n(Cc3ccco3)c(SCc3ccc([N+](=O)[O-])cc3)nc2c1 (stereo not drawn)
    .	0.53
Cc1ccc(-n2nnc3ccccc3c2=O)cc1C
    .	-0.79
CC1CN(c2ccc(NC(=S)Nc3ccc(N4CC(C)OC(C)C4)cc3)cc2)CC(C)O1 (stereo not drawn)
    0.25	-0.97
O=C(COC(=O)C12CC3CC(CC(O)(C3)C1)C2)c1ccc[nH]1
    -0.4	.
CCCNC(=O)c1nn(C)c2c1CCc1sccc1-2
    0	2.7
c1ccc(-c2cc3ccccc3nn2)cc1
    -0.55	-0.6
Cc1c(C(=O)Nc2nc3ccccc3s2)sc2ncn(Cc3cccc(F)c3)c(=O)c12
    .	-0.42
CNC(=O)c1cc(Sc2nnc(C)s2)nc2ccccc12
    1.1	0.005
Cc1ccc2c(c1)c(-c1ccccc1)c(-c1ccccc1)n2CC(O)CNCc1ccco1 (stereo not drawn)
    1.1	-0.29
COC(=O)c1cccc(COC(=O)c2cc(=O)[nH]c3ccccc23)c1
    -0.95	0.83
Cc1[nH]n(-c2cccc(Cl)c2)c(=O)c1C=Nc1ccccc1Cl
    .	-0.89
C=CCNc1nc(Nc2ccc([N+](=O)[O-])cc2)nc(N2CCOCC2)n1
    .	-0.84
CC(C)(C)c1ccc(Oc2ccc3noc4c3c2C(=O)c2ccccc2-4)cc1
    .	-1.2
Cc1cc(N2CC(=O)N(CCc3ccccc3)C(=O)C2)n2ncnc2n1
    -0.35	-0.15
COc1ccc(CCNS(=O)(=O)c2ccc(F)c(C(=O)Nc3cccc(Cl)c3Cl)c2)cc1OC
    .	-0.65
CC1CC(=O)N(Cc2ccccc2F)c2ccccc2S1(=O)=O (stereo not drawn)
    -1.1	.
CCOC(=O)c1cc(C#N)c(=S)[nH]c1N
    -0.5	.
CO[C@H]1[C@H](O)[C@@H](O[C@H]2CC[C@]3(C=O)C4CC[C@]5(C)[C@@H](C6=CC(=O)OC6)CC[C@]5(O)C4CC[C@@H]3C2)O[C@@H](C)[C@@H]1O (stereo partly drawn)
    0.05	0.075
N#CC1=C(N)Oc2cc(O)ccc2C12C(=O)Nc1ccccc12 (stereo not drawn)
    .	-0.14

Pulled one by one from the entries so far (6):
Value order: AID504770	CapD inh
Cc1ccc(-c2oc(N)c(C#N)c2-c2ccc(C)cc2)cc1
    -0.3	22
O/N=C/c1c(-c2ccccc2Cl)[nH]c2ccccc12
    0.5	13
CCOC(=O)C1=NN(C(=O)c2ccc([N+](=O)[O-])cc2)C(O)(C(C)(C)C)C1 (stereo not drawn)
    .	0.075
COc1cccc(NC(=S)NC(C)(C)C)c1
    -0.05	0.12
COC(=O)c1ccccc1SC(CC(=O)c1ccccc1)c1ccc(F)cc1 (stereo not drawn)
    .	-0.18
Cc1nc2nc[nH]n2c(=O)c1NC(=O)NC1CCCC1
    -0.55	0.02

Additional entries follow:
Value order: AID504770	CapD inh
O=CN1CCN(C(=O)CCc2ccccc2)CC1
    -0.75	0.31
Cc1ccc(CN(C)c2nc(CN3CCOCC3)nc3sc4c(c23)CCC4)o1
    -0.15	.
Cc1cccc2cc(CN(CCO)S(=O)(=O)c3ccc(Cl)cc3)c(=O)[nH]c12
    -0.75	.
CC(Sc1ccc(Cl)cc1)C(=O)NCC1CCCO1 (stereo not drawn)
    0.85	0.57
COc1cc(OC)cc(N2CCN(S(=O)(=O)c3ccc(Br)cc3)CC2)c1
    .	0.56
O=C(CC1CCCCC1)Nc1ccc(N2CCOCC2)cc1N1CCOCC1
    0.1	.
FC(F)(F)c1[nH]ncc1-c1nnnn1-c1ccccc1
    0.45	1.1
Fc1ccc(-c2cn3ccccc3n2)cc1
    -0.95	.
O=C(CCN1C(=O)C2CC=CCC2C1=O)NCc1ccccc1 (stereo not drawn)
    1.7	-0.9
CCCCCCC#CCCOC(=O)NCCc1c[nH]c2ccc(OC)cc12
    .	-0.11
COc1ccc(N2CCN(C(=O)c3ccc(-n4nc(C(C)(C)C)cc4C(C)(C)C)cc3)CC2)c(OC)c1
    .	-0.35
COC(=O)N/N=C/c1ccc(-c2ccccc2)o1
    -0.2	2.3
Cc1ccc2c(c1)nnn2C1CCN(C(=O)Nc2ccc(C#N)cc2)CC1
    -0.15	.
O=C(COC(=O)c1ccccc1Br)c1cccs1
    -0.8	-0.29
O=C(C1CCCC1)N1CCN(c2cnn(-c3ccccc3)c(=O)c2Cl)CC1
    -0.35	.
Cc1cc(C(=O)N(C)Cc2ccccc2)on1
    -0.55	0.14
CC(=C\c1ccccc1)/C=C1/SC(=O)NC1=O
    0.1	0.37
COc1ccc(C(=O)CSc2nc3ccccc3s2)cc1
    -0.3	0.23
Cc1ccc2cc(CN(Cc3ccccc3)C(=O)c3ccccc3C)c(=O)[nH]c2c1
    0.35	13
N#Cc1ccc(C2=NC(C(F)(F)F)(C(F)(F)F)c3c(n(Cc4ccco4)c(=O)[nH]c3=O)N2)cc1
    -0.2	-0.98

A few values from the list.
AID504770 with CCOC(=O)c1cc(C#N)c(=S)[nH]c1N stands at -0.5
CapD inh with COc1ccc(CCNS(=O)(=O)c2ccc(F)c(C(=O)Nc3cccc(Cl)c3Cl)c2)cc1OC stands at -0.65

The listing continues:
Value order: AID504770	CapD inh
CCC(Sc1nc2cc(C(=O)OC)ccc2c(=O)n1Cc1ccc2c(c1)OCO2)C(=O)NCc1cccnc1 (stereo not drawn)
    .	0.12
Cc1ccc(S(=O)(=O)NC(O)C(=O)c2cccs2)cc1 (stereo not drawn)
    -0.55	-0.035
O=C(NCCCc1ccccc1)c1c(O)nc2sccn2c1=O
    -1.1	.
CN(C)C=NC(=O)C1CCN(c2cccc(F)c2C#N)CC1
    .	28
CC(NC(=O)c1ccccc1NC(=O)c1ccccc1)C(=O)N1CCCC1 (stereo not drawn)
    0.55	3.5
CC(C)(C)c1ccc(C(=O)N(CC#N)CC#N)cc1
    -1.8	-0.11
O=[N+]([O-])c1ccc(C2CCCC/C2=N/Nc2ccccc2)c([N+](=O)[O-])c1 (stereo not drawn)
    .	0.3
Cc1nn(C(=O)c2ccco2)c(C)c1Sc1ccccc1
    -0.45	-0.54
CCCCn1c(=O)[nH]c(=O)c2c(C(=O)OCC)cc(-c3ccccc3Cl)nc21
    -0.7	.
OC(CNCc1ccccc1)C(F)(F)F (stereo not drawn)
    -0.1	-0.29
Cc1nc(N2CCCCC2)c2c(C)c(C(=O)N3CCN(c4ccc([N+](=O)[O-])cc4)CC3)sc2n1
    .	-1.1
CC1(C)CCc2cc(-c3ccn[nH]3)ccc2O1
    .	0.1
CCOC(=O)/C(C)=N\O
    -0.55	.
C=CCS/C(=N\n1cnc2ccccc2c1=O)N1CCCCC1
    -0.95	1.1
Cc1ncc(CSCC(=O)Nc2cc(C(F)(F)F)cc(C(F)(F)F)c2)c(CO)c1O
    2.4	3.9
CC(NC(=O)c1nc2ncccn2n1)c1ccccc1 (stereo not drawn)
    -1.2	-0.14
OC(COc1ccccc1Br)CN1CCN(Cc2ccccc2)CC1 (stereo not drawn)
    0.45	0.31
O=C1CSc2ccc(C(=O)N3CCCCC3)cc2N1
    0.7	0.82
Cc1csc(=O)n1CC(=O)NC1CCCc2ccccc21 (stereo not drawn)
    0.65	.
O=[N+]([O-])c1ccc(-c2cn3ccccc3n2)cc1
    .	0.77
